LASV entry inh = qHTS for Inhibitors of binding or entry into cells for Lassa Virus; Potency, µM (doses to about 37.9 µM), for the others: top-dose activity change, negative = inhibition, hits mostly inhibitors; actives 1.2% (n = 300,000); Lassa virus pseudotype entry inhibition, cell reporter; control for the full effect not named in the record; active means well fitted inhibition curve with a large enough effect; inconclusive means small, poorly fitted or top-dose-only effect, or effect the other way; inactive means flat fitted curve, though single readings scatter; tested in HEK293 cells; also: % is scaled to controls: 0 for no effect and ±100 for the full control effect; nearly all actives have a fitted effect of over 50% in size; luciferase read-out
Cruzain noTriton = qHTS Assay for Promiscuous and Specific Inhibitors of Cruzain (without detergent); Cruzipain (Trypanosoma cruzi), P25779; purified cruzain, Z-FR-AMC fluorescence, no detergent; Potency, µM, without a hit: max response, negative = inhibition, usual class: inhibitors; actives 2.3% (n = 200,000); AID 1476, 2009; active = well fitted curve in the direction sought with a large enough effect; inconclusive = small, poorly fitted or top-dose-only effect, or another doubt; inactive = no such curve, though single readings can be large; an effect the other way counts as inactive or inconclusive;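 also: plate controls were enzyme without inhibitor for no effect and buffer without enzyme for full effect; nearly all actives have a fitted effect of over 40% in size; top concentration of the series not given in the record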
Target sequence (P25779 123-467 limits assumed): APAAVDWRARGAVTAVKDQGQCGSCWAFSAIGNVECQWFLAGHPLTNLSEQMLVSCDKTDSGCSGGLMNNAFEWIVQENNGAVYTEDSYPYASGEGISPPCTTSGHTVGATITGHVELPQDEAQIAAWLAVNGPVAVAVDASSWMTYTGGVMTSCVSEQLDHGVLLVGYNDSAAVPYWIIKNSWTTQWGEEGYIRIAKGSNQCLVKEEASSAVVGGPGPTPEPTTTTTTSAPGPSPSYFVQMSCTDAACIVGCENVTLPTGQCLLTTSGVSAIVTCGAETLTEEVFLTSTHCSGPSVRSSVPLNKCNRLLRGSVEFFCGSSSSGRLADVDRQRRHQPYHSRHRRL
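Detergent-free condition (0.00005% Triton X-100) in acetate buffer pH 5.5 with DTT. 1.5 nM enzyme and compound were pre-mixed 15 min, then 2 uM Z-FR-AMC substrate added; reaction progress from fluorescence change between first and third reads (60 s).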
NS1 inh = qHTS Assay for Inhibitors of Influenza NS1 Protein Function. S. cerevisiae slowed by influenza A NS1, growth recovery by OD600. Potency, µM (titrated, usually from 46.1 µM), for the others: at the highest dose activity, positive = more growth. actives 0.4% (n = 270,000); also: actives are rising curves; nearly all actives have a fitted effect of over 50% in size
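OD600 was taken as the measure of yeast growth restored by compound in an NS1-expressing S. cerevisiae strain. Cells had been washed out of glucose medium and diluted 1:100 into galactose -URA medium, pH 6.0.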
SARS PLP yeast = qHTS of Yeast-based Assay for SARS-CoV PLP. S. cerevisiae expressing SARS-CoV PLpro, growth rescue; control for the full effect not named in the record. Potency, µM (titrated, usually from 32.9 µM), without a hit: at the highest dose activity, positive = growth rescue. actives 0.19% (n = 330,000). AID 485353, 2010; also: 0% is about no effect; nearly all actives have a fitted effect of over 55% in size; growth read by luminescence after 48 h
MARV entry inh = qHTS for inhibitors of binding or entry into cells for Marburg Virus; Marburg virus pseudotyped entry inhibition, cell reporter; control for the full effect not named in the record; about a third of the inactives were read at about 46 µM; Potency, µM (series often up to 37.8 µM), inactives show at the top dose activity change, negative = inhibition, actives largely listed as inhibitors; actives 1.8% (n = 300,000); AID 540276, 2011; active = well fitted inhibition curve with a large enough effect; inconclusive = small, poorly fitted or top-dose-only effect, or effect the other way; inactive = flat fitted curve, though single readings scatter; tested in HEK293 cells; about a fifth of its hits are not listed in these tables; also: % is scaled to controls: 0 for no effect and ±100 for the full control effect; luciferase read-out
Cruzain Triton = qHTS Assay for Promiscuous and Specific Inhibitors of Cruzain (with detergent) | Cruzipain (Trypanosoma cruzi), P25779 | purified cruzain, Z-FR-AMC fluorescence, 0.01% Triton | Potency, µM, for inactives: max response, negative = inhibition, most hits filed as inhibitors | actives 0.43% (n = 200,000); active = well fitted curve in the direction sought with a large enough effect; inconclusive = small, poorly fitted or top-dose-only effect, or another doubt; inactive = no such curve, though single readings can be large; an effect the other way counts as inactive or inconclusive;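 also: plate controls were neutral wells for no effect and buffer without enzyme for full effect; nearly all actives have a fitted effect of over 40% in size; top concentration of the series not given in the record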
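Read-out: AMC fluorescence (360 nm excitation, 450 nm emission), four reads over 2 min, first-to-third difference used. Conditions: cruzain 1.5 nM, Z-FR-AMC 2 uM, pH 5.5 acetate, 5 mM DTT, 0.01% Triton X-100.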
StopGo reporter = High Throughput Screening for Foot and Mouth Disease Virus Antivirals | Potency, µM (series often up to 57.9 µM), for the others: at the highest dose signal change, negative = less light | human cells with a luciferase reporter of 2A StopGo recoding; control for the full effect not named in the record | actives 1.2% (n = 410,000); active = well fitted falling curve with a large enough effect; inconclusive = small, poorly fitted or top-dose-only effect; inactive = no such curve, though single readings can be large or run the other way; tested in HEK293T cells; also: % is scaled to controls: 0 for no effect and ±100 for the full control effect; nearly all actives have a fitted effect of over 45% in size; luciferase light after 4 h
RE007 growth inh = qHTS Assay for Inhibitors of the HIV-1 protein Vpr | S. pombe RE007 Vpr strain, BacTiter-Glo ATP luminescence, 24 h; control for the full effect not named in the record | AID 651644, 2012 | actives 0.21% (n = 360,000) | Potency, µM (doses to about 92.2 µM), inactives show at the top dose activity change, negative = less growth; active = well fitted falling curve with a large enough effect; inconclusive = small, poorly fitted or top-dose-only effect; inactive = no such curve, though single readings can be large or run the other way;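 also: % is scaled to controls: 0 for no effect and ±100 for the full control effect; nearly all actives have a fitted effect of over 50% in size; the assay follows cell death caused by Vpr and the record does not say whether a fall means rescue or toxicity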
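Fission yeast strain RE007, carrying one chromosomally integrated HIV-1 vpr copy, was seeded at OD 0.01 in PMG+AL medium with 23 nL pinned compound. After 24 h at 30 °C and 99% humidity, viability was read by BacTiter-Glo luminescence.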
An asterisk follows results filed as active; ? = inconclusive; . = no result given; [ ] = remark or other dose. Unless noted, calls follow the shape of the dose curve; as a rule, active means well fitted rising curve with a large enough effect; inconclusive means small, poorly fitted or top-dose-only effect; inactive means no such curve, though single readings can be large or run the other way. Potency is read from the fitted curve at half-maximal effect. Outcome played no part in choosing rows, and some 4.6% of all compounds hit somewhere here.

SMILES	LASV entry inh	Cruzain noTriton	NS1 inh	SARS PLP yeast	MARV entry inh	Cruzain Triton	StopGo reporter	RE007 growth inh
C=CCn1c(SCC(N)=O)nc2sc3c(c2c1=O)CCC3	6%	.	-3%	-1%	-5%	.	-12%	7%
CCCN(CCC)S(=O)(=O)c1ccc(C(=O)Nc2cccnc2)cc1	.	.	-5%	0%	.	.	-20%	17%
CCn1c(SCc2ccc(C(=O)O)cc2)nnc1-c1ccc(Cl)cc1	.	.	24%	3%	.	.	-7%	-10%
O=C(c1nc2ccc(Cl)cn2c1CN1CCCC(CO)C1)N1CCc2ccccc2C1 (stereo not given)	?	.	7%	-1%	24%	.	-7%	4%
CC(C)(C)c1ccc(C(=O)Nc2cccc([N+](=O)[O-])c2)cc1	?	-1%	-15%	-51%	?	-6.9%	-38%	-10%
CCN(c1ccc(OC)cc1)S(=O)(=O)c1csc(C(N)=O)c1	.	.	-1%	-1%	.	.	5%	1%
Cc1sc2nc(SCC(=O)N3CCCCC3)[nH]c(=O)c2c1C	0%	-14%	-4%	-18%	5%[46.1 µM]	-6.9%	3%	-2%
C/C=C\C(=O)Nc1cccc(C2=NOC3(C2)C[C@H](C(N)=O)N(C(=O)[C@H]2CCC(=O)N2)C3)c1 (stereo not given in full)	.	.	-4%	-4%	.	.	-7%	-2%
CC(C)OC(=O)CSc1nnc(-c2ccccn2)n1N	7%	.	-2%	0%	0%	.	-3%	16%
C=CCn1c(O)c(N=NC(=O)CNC(=O)c2cccs2)c2ccccc21	-22%	0%	-11%	-5%	-9%	-5.9%	1%	9%

The last 4 records of the section before lead into the next:
SMILES	LASV entry inh	Cruzain noTriton	NS1 inh	SARS PLP yeast	MARV entry inh	Cruzain Triton	StopGo reporter	RE007 growth inh
Cc1sc2nc(SCC(=O)N3CCCCC3)[nH]c(=O)c2c1C	0%	-14%	-4%	-18%	5%[46.1 µM]	-6.9%	3%	-2%
C/C=C\C(=O)Nc1cccc(C2=NOC3(C2)C[C@H](C(N)=O)N(C(=O)[C@H]2CCC(=O)N2)C3)c1 (stereo not given in full)	.	.	-4%	-4%	.	.	-7%	-2%
CC(C)OC(=O)CSc1nnc(-c2ccccn2)n1N	7%	.	-2%	0%	0%	.	-3%	16%
C=CCn1c(O)c(N=NC(=O)CNC(=O)c2cccs2)c2ccccc21	-22%	0%	-11%	-5%	-9%	-5.9%	1%	9%
O=C(NCc1ccccn1)c1ccc(NS(=O)(=O)c2ccccc2)cc1	-3%	.	25%	0%	?	.	3%	-8%
O=c1cn[nH]c2ccccc12	9%	.	1%	-1%	1%[46.1 µM]	.	-6%	5%
O=C(CSC1CCCCC1)N1CCN(c2ccccc2)CC1	-6%	13%	-13%	-5%	12%[46.1 µM]	2.1%	18%	-11%
CCOc1ccc(N(CC(=O)NCCSCc2ccco2)S(=O)(=O)c2ccc(C)cc2)cc1	?	.	?	4%	-28%[46.1 µM]	.	17%	-2%
O=C(NC1CCCC1)c1ccc(S(=O)(=O)N2CCCC2)cc1	?	5%	-12%	-1%	?	4.2%	-9%	3%
Cc1cc(C)c2c(CN3CCN(CCO)CC3)cc(=O)oc2c1	-4%	-7%	4%	-2%	-10%	-0.3%	-7%	-29%
Cc1nc2sc3c(NCc4ccco4)ncnc3c2c2c1COC(C)(C)C2	-21%	?	14%	0%	?	-22%	?	-17%
COc1ccc(/C(N)=N/OC(=O)CCCN2C(=O)c3ccccc3C2=O)cc1OC	7%	.	.	0%	-11%[46.1 µM]	.	-12%	4%
CC(=O)c1ccc(OCC(O)CN2CCCC(C)C2)cc1 (stereo not given)	.	3%	0%	2%	.	-1.1%	-9%	-14%
CCCC1=Nc2cc(C(=O)NCCc3ccc(OC)cc3OC)ccc2Sc2ccccc21	?	-13%	.	.	?	-0.6%	-12%	.

Two of these compounds, set out differently.
Structure | LASV entry inh | Cruzain noTriton | NS1 inh | SARS PLP yeast | MARV entry inh | Cruzain Triton | StopGo reporter | RE007 growth inh
CC(=O)c1ccc(OCC(O)CN2CCCC(C)C2)cc1 (stereo not given) | . | 3% | 0% | 2% | . | -1.1% | -9% | -14%
CCCC1=Nc2cc(C(=O)NCCc3ccc(OC)cc3OC)ccc2Sc2ccccc21 | ? | -13% | . | . | ? | -0.6% | -12% | .

Carrying on.
SMILES	LASV entry inh	Cruzain noTriton	NS1 inh	SARS PLP yeast	MARV entry inh	Cruzain Triton	StopGo reporter	RE007 growth inh
COc1ccc(C(C(=O)NCC2CCCO2)N(C(=O)c2snc(C(N)=O)c2N)c2ccccc2)cc1OC (stereo not given)	-19%	.	-14%	2%	2%[46.1 µM]	.	-10%	-4%
O=C(Cn1c(=O)[nH]c2ccccc2c1=O)Nc1ccc2c(c1)OCO2	.	.	-3%	5%	.	.	20%	-4%
O=C(CN1CC=C(c2ccccc2)CC1)NC(=O)NC1CCCCC1	-4%[46.1 µM]	.	.	-2%	-21%[46.1 µM]	.	-8%	-3%
CCOCCCn1cnc2c(c1=O)c1nc3ccccc3nc1n2-c1ccccc1	10%	?	13%	1%	1%	-2.5%	0%	-14%
COc1ccccc1N1CCN(/N=C/c2cc(OC)c(O)c(OC)c2)CC1	15%	5%	28%	9%	?	-1.5%	-8%	3%
Nc1nnc(SCc2coc(-c3ccc(Cl)cc3)n2)s1	-16%	-6%	-5%	-4%	?	3.6%	-22%	20%
CC1(C)CN(c2cccc(Br)c2)C1=O	10%	.	.	-2%	19%[46.1 µM]	.	-10%	-15%
Cc1ccc(S(=O)(=O)CC(=O)Nc2nc(C(C)(C)C)cs2)cc1	3.7µM*	.	1%	-2%	2%	.	-23%	-1%
COC(=O)c1c(NC(=O)Cc2coc3ccc(C(C)C)cc23)sc2c1CCC2	?	-12%	.	.	?	5.5%	-16%	.
Cc1cc(C(=O)NC2CCCc3c2cnn3-c2cccc(C)c2C)no1 (stereo not given)	?	.	-22%	-7%	?	.	-17%	10%
CSCC(=O)N1CCCC(C(=O)c2cc(F)ccc2F)C1 (stereo not given)	1%	.	2%	0%	-5%[46.1 µM]	.	-13%	2%
CC(OC(=O)c1ccc(Cl)cc1O)C(=O)NCCC1=CCCCC1 (stereo not given)	3%	.	.	1%	28%	.	?	15%
O=C(CN1CCC(C(=O)c2ccc(F)cc2)CC1)Nc1ccccc1Cl	-1%	.	-20%	-8%	-29%[46.1 µM]	.	-17%	-12%
Cc1noc(NS(=O)(=O)c2ccc(NC(=O)c3cc4ccccc4o3)cc2)c1C	5%	.	.	2%	5%	.	7%	2%
Cc1ccc2c(c1)OC(=O)CC2c1ccccc1 (stereo not given)	-11%	-1%	5%	-3%	?	3.9%	-20%	-11%
CCOC(=O)Cc1c(C)nc2c(-c3ccccc3)c(C)[nH]n2c1=O	-17%[14.3 µM]	14%	13%	0%	?	4.7%	-8%	11%
O=C(NCc1cccs1)C1CCC(CNS(=O)(=O)c2cccc3nsnc23)CC1 (stereo not given)	.	-4%	6%	5%	0%	-1.1%	0%	2%
O=C(O)C1C2CCCCC2=C2CCCCC2C1C(=O)Nc1nccs1 (stereo not given)	11%	.	.	.	0%	.	-16%	-13%
Cc1cccc(C(=O)Nc2cccc(-c3ccc4nncn4n3)c2)c1	?	.	.	-3%	?	.	-24%	15%
C=CCC(Nc1ccccc1)C12C=CC(O1)C(C(=O)OC)=C2C(=O)OC (stereo not given)	?	?	-2%	-37%	?	-2.8%	?	-4%

2 successive entries already listed, for reference:
SMILES	LASV entry inh	Cruzain noTriton	NS1 inh	SARS PLP yeast	MARV entry inh	Cruzain Triton	StopGo reporter	RE007 growth inh
CSCC(=O)N1CCCC(C(=O)c2cc(F)ccc2F)C1 (stereo not given)	1%	.	2%	0%	-5%[46.1 µM]	.	-13%	2%
CC(OC(=O)c1ccc(Cl)cc1O)C(=O)NCCC1=CCCCC1 (stereo not given)	3%	.	.	1%	28%	.	?	15%

Next structures follow:
SMILES	LASV entry inh	Cruzain noTriton	NS1 inh	SARS PLP yeast	MARV entry inh	Cruzain Triton	StopGo reporter	RE007 growth inh
COc1cccc(C(=O)NCCSc2c(-c3ccc(F)cc3)[nH]c3ccccc23)c1OC	?	?	.	.	?	-3.8%	0%	.
COC(=O)c1ccc(N2CCOCC2)c(NC(=O)c2ccc3c(c2)OCO3)c1	.	.	-1%	0%	-7%[46.1 µM]	.	-15%	20%
CNC(=O)N(O)C1N(/N=C/c2ccccc2O)C(=S)SC1(C)C (stereo not given)	14%	.	-3%	0%	-4%[46.1 µM]	.	64%[activator]	5%
Cc1nc(SCC(=O)N2CCC(Cc3ccccc3)CC2)[nH]c(=O)c1C	-7%[46.1 µM]	.	.	2%	7%	.	?	-9%
CCCN1C(=O)C2(c3ccccc31)c1c(oc3cc(C)c(C)cc3c1=O)C(=O)N2CCCOC (stereo not given)	19%[46.1 µM]	9%	.	.	?	-2.3%	17%	.
CC(C)CN1CCC(=O)N([C@H](CSc2ccc(Br)cc2)Cc2ccccc2)CC1	.	.	2%	-1%	.	.	-28%	5%
CC(=O)O/N=C/c1c(C)c(C=O)n2ccccc12	-5%[46.1 µM]	.	-3%	1%	?	.	-14%	-11%
CCCNC(=O)N1CCN(C(c2ccccc2)c2ccccc2)CC1	.	.	-8%	-2%	.	.	0%	-1%
S=C(NCc1cccs1)Nc1ccc(Cl)cc1	-10%	5%	-49%	29%	2%[46.1 µM]	-4.9%	35%[activator]	-2%
CNC(=O)C(=O)NCC(c1cccs1)S(=O)(=O)c1ccc(C)cc1 (stereo not given)	.	.	-6%	4%	.	.	-19%	5%

Bioassay records: PubChem BioAssay, National Center for Advancing Translational Sciences (NCATS)
